Bead autofluor: compound fluorescence in toxin protease inhibitor counterscreen; compound autofluorescence counterscreen, microsphere flow cytometry; hits give high values; fluorescence intensity (concentration not given with the values); 360,000 compounds, 3.1% hits;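 active = at least 3 SD above the mean of all compounds, about 16000 in these data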;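 also: 100 nL of 1 mM stock went into each well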
Numbers without * were called inactive. This is a subset, so the mix of outcomes need not match the whole.

SMILES	Bead autofluor
C[C@H](CO)N1C[C@H](C)[C@@H](CN(C)S(=O)(=O)c2ccccc2F)Oc2ncc(C#Cc3cccnc3)cc2C1=O	3490
CN1CCCC1=Nc1ccccc1	3747
OC[C@@H]1CN(Cc2ccc(F)cc2)C[C@H](n2cnc3c(NC4CC4)ncnc32)O1	3610
CC(=O)CC(c1ccc2c(c1)OCO2)c1c(O)c2ccccc2oc1=O (configuration not stated)	3471
Nc1ccn([C@@H]2O[C@H](C(=O)Nc3ccc(C(=O)N4CCCCC4)cc3)[C@@H](O)[C@H]2O)c(=O)n1	5744
Oc1ccc(CCNCc2cc3c(cc2Br)OCO3)cc1	2909
CCn1cc(/C=C(\NC(=O)c2ccccc2)C(=O)NCCN2CCOCC2)c2ccccc21	3706
CC12CCC(=O)C=C1CCC1C2C(O)CC2(C)C1CCC2(O)C(=O)COC(=O)CCC1CCCC1 (configuration not stated)	5829
COc1ccc(NC(=O)C2Cc3c(-c4cccc(C(C)=O)c4)ccnc3O2)cc1 (configuration not stated)	3527
COC(=O)[C@]12CCCCC=C1N(CCC1=CCCCC1)C(=O)[C@H](CC(=O)N1CCN(C(=O)c3ccco3)CC1)C2	4995
COc1cccc(-c2cc(NC=O)c3ncc(-c4ccc(OC)c(OC)c4)n3c2)c1	3064
CC(C)Oc1ccc(S(=O)(=O)N2CCOCC2)cc1NC(=O)CC1CC2CCC1C2 (configuration not stated)	3950
Cc1ccc(F)cc1C(=O)N1CCCC(C)(C(=O)NS(=O)(=O)C2CC2)C1 (configuration not stated)	4212
Cc1ccc(S(=O)(=O)NC(=O)C2(C)CCN2C(=O)C2(c3ccc(Cl)cc3)CCC2)nc1 (configuration not stated)	3790
O=C(Cc1ccc([N+](=O)[O-])cc1)NCCS(=O)(=O)N1CCN(c2ccccc2)CC1	2879
N#CCCN(Cc1ccccc1)C(C(=O)NC1CCCCC1)c1cc2ccccc2o1 (configuration not stated)	5602
CN(C)C1CN(Cc2cn(Cc3cccc(C(F)(F)F)c3)nn2)S(=O)(=O)C1 (configuration not stated)	5288
O=C(COC(=O)c1cc(Br)ccc1O)NCCC1=CCCCC1	3629
C[C@@H]1CN([C@H](C)CO)C(=O)CCCn2nncc2CO[C@H]1CN(C)C	3522
Cn1c(=O)c2c(-c3ccccc3)n(-c3cc([N+](=O)[O-])ccc3O)cc2n(C)c1=O	2879
CC(C)(C)NC(=O)C1c2ccccc2OCC(=O)N1Cc1ccccn1 (configuration not stated)	5148
COc1ccc(-c2cc(NC=O)c3ncc(-c4cccc(OC)c4)n3c2)cc1	4186
N#Cc1cccc(NC(=O)c2cc(C3CCCCN3C(=O)c3cccs3)on2)c1 (configuration not stated)	4047
CCCCn1nnnc1C(c1cc2ccccc2o1)N1CCN(c2ccncc2)CC1 (configuration not stated)	4663
O=C(NCc1ccccc1)c1cc(C2COCCN2C(=O)c2ccc3c(c2)CCO3)on1 (configuration not stated)	2837
N#CC(=C1C=C(Br)C(=NO)C=C1Cl)c1ccc(Cl)cc1	3728
CN1CCN(C(=O)c2cccc(-c3cccc4nccn34)c2)CC1	2879
C[C@H](CO)N1C[C@H](C)[C@H](CN(C)Cc2ccc(Oc3ccccc3)cc2)Oc2cc(Br)ccc2S1(=O)=O	2938
S=C(NCCCN1CCOCC1)NN=C1c2ccccc2-c2ccccc21	3632
CCC/C=C/c1ccc(CN2C(C(C)C)C(=O)N(Cc3cn(CCOCOC)nn3)CCS2(=O)=O)cc1 (configuration not stated)	4152
C[C@H](CO)N1C[C@H](C)[C@H](CN(C)C(=O)N[C@H](C)c2ccccc2)OCc2ccccc2-c2c(n(C)c3ccccc23)C1=O	2794
Cc1c(C(=O)NC2CC(C)(C)NC(C)(C)C2)oc2c(Cl)cccc12	4114
NC(Cc1ccc(C(F)(F)F)cc1)c1csc(Nc2nccc(C(F)(F)F)n2)n1 (configuration not stated)	4048
COC(=O)c1ccc2nc(-c3ccccc3)c(Cc3ccc(C)cc3)n2c1	6702
Cc1cc2c(cc1C)N(C(=O)CCl)CC(=O)N2	3512
COc1ccc(OC(F)(F)F)cc1CC1(C)C(=O)Nc2ccc(S(=O)(=O)NC3CCCCC3)cc21 (configuration not stated)	2920
Cc1ccc(CCN2CC(C(=O)NC3CCC(C)CC3)CC2=O)cc1 (configuration not stated)	3795
C[C@@]12C(C[C@H](O)[C@@]34C[C@@H](CCC13)[C@@H](CO)C4=O)[C@](C)(C(=O)O)CC[C@@H]2O (some centres not stated)	5635
COc1cc(CNC(=O)OC2CC3CC2[C@H]2CCCCN2C3=O)cc(OC)c1 (some centres not stated)	5496
Nc1ncnc2c1ncn2[C@@H]1O[C@H](C(=O)Nc2ccc(Oc3ccccc3)nc2)[C@@H](O)[C@H]1O	4080
O=C(COC(=O)CN1C(=O)c2ccccc2C1=O)Nc1ccccc1C(F)(F)F	3923
C#CCN(C[C@H]1[C@H](OC(=O)NCc2ccc(OC)c(OC)c2)[C@H](OC(=O)NCc2ccc(OC)c(OC)c2)C[C@H]2C(=O)N(c3ccccc3)C(=O)[C@@H]12)S(=O)(=O)c1ccc(C)cc1	3766
C[C@H]1CN([C@@H](C)CO)C(=O)c2cc(Br)cnc2O[C@@H]1CN(C)C(=O)Nc1ccc(C(F)(F)F)cc1	3052
Cc1nc2ccc(C(=O)Nc3cccc(NS(C)(=O)=O)c3)cn2c1N(C)C(=O)CCc1ccccc1	2996
O=C(C[C@@H]1C[C@@H]2c3cc(NS(=O)(=O)c4ccc(F)cc4)ccc3O[C@@H]2[C@@H](CO)O1)NC1CCCCC1	4899
O=C(COc1ccc(Cl)cc1)N1CCN(S(=O)(=O)c2cc(F)ccc2F)CC1	2890
O=S1(=O)N[C@@H](Cc2ccccc2)COc2ccc(Cl)cc21	3783
CCNC(=O)C1(C)CCCN(Cc2ccccc2-c2ccccc2)C1 (configuration not stated)	3772
CCOc1ccc(Cl)cc1-c1cc(C(=O)NC2CCCCC2)[nH]n1	3436
CC1CC(C)CN(S(=O)(=O)c2ccc(C(=O)OCC(=O)Nc3ccccc3)cc2)C1 (configuration not stated)	4101
CC1(C(=O)NCc2ccc(Cl)cc2)CCN1C(=O)c1cccc(F)c1 (configuration not stated)	3867
COc1ccc(-c2ccc(CN3C(CC(C)C)C(=O)N(Cc4cn(CC5CCCCC5)nn4)CCS3(=O)=O)cc2)cc1 (configuration not stated)	3674
COc1ccccc1N(CC(=O)NCc1ccccc1)S(=O)(=O)c1cccs1	3930
CCOC(=O)c1ccc(NC(=O)c2ncn3c2C(=O)NC[C@@H]3C)cc1	3340
CCCCCCCCN1C(=O)[C@H](CC(=O)N2CCCC2)C[C@@]2(C(=O)OC)CCCCC=C12	6142
Cc1noc(C)c1-c1ccc(C(=O)NCCN2CCOCC2)c2occc12	3634
CC(=O)NC(c1ccccc1)c1nc(-c2cncnc2)cs1 (configuration not stated)	3419
CC1=CC(=O)C=CC1=Nc1ccc(N(C)C)cc1	5150
CCN(CC(=O)Nc1c(F)cccc1F)C(=O)CCCSc1nc2ccccc2[nH]1	3686
O=C(NCc1cccc(Cl)c1)c1ccc(-c2ccc(F)c(F)c2)c2ccoc12	4334
Carrying on.
SMILES	Bead autofluor
C[C@@H]1Cc2[nH][nH]c(=O)c2[C@H](C)O1	6307
COc1ccc(C(C)(O)c2nc(-c3cncnc3)cs2)cc1 (configuration not stated)	2994
COc1ccc(C(NC(=O)C2CCN(CCOc3ccc(Cl)cc3Cl)CC2)c2cccs2)cc1 (configuration not stated)	4860
Cc1cc(C)cc(C(O)c2ncc(-c3ccc(F)cc3)[nH]2)c1 (configuration not stated)	3687
O=C1c2ccccc2-c2ccccc2NC1O (configuration not stated)	3531
COc1ccc(C)cc1S(=O)(=O)N1CCCC(N2CCN(c3ccccc3)CC2)C1 (configuration not stated)	4021
Cc1cc(C(=O)N2CCC2(C)C(=O)O)nn1C(C)(C)C (configuration not stated)	3725
CC(OC(=O)c1ccc(NC(=O)CC#N)cc1)C(=O)Nc1ccc(S(=O)(=O)N2CCCC2)cc1 (configuration not stated)	4270
CC(=O)O[C@@H](Cc1ccc(O)cc1)C(=O)CC(C)C	5791
COC(=O)C1=C(C(=O)OC)C(C(=O)OC)N2C=CC=CC2=C1C(=O)OC (configuration not stated)	5304
CNc1ncnc2c1ncn2[C@H]1CN(Cc2ccco2)C[C@@H](CO)O1	3680
CCOC(=O)[C@]12CCC=C1N(Cc1cccc3ccccc13)C(=O)[C@H](CC(=O)NCCC(C)C)C2	6513
COc1ccc(C(=O)N2CCCCC2c2cc(C(=O)Nc3ccccc3)no2)cc1 (configuration not stated)	3673
O=C1NC[C@@H](CCCCN2C[C@H](Cc3ccc(O)cc3)N(Cc3ccccc3)C(=O)C2=O)N(CC2CCCCC2)C1=O	5908
CCNC(=O)C1CCCN(C(=O)c2ccc(OC)cc2OC)CC1 (configuration not stated)	2847
NC(=O)N/C=C1\CCCOC1=O	3495
O=[N+]([O-])c1ccc2c(c1)-c1ccccc1C2O (configuration not stated)	3846
CC(=O)NCCNC(=O)C1Cc2c(-c3ccc(Cl)cc3)ccnc2O1 (configuration not stated)	3926
CCCc1nc2c3ccccc3ccn2c1Cc1ccc(OC)cc1C	7044
CCCC(=O)N1CCC1(C)C(=O)NS(=O)(=O)c1ccc(Cl)cc1 (configuration not stated)	2922

4 of the compounds above, with each value named.
CCC/C=C/c1ccc(CN2C(C(C)C)C(=O)N(Cc3cn(CCOCOC)nn3)CCS2(=O)=O)cc1 (configuration not stated)
- Bead autofluor = 4152
Cc1c(C(=O)NC2CC(C)(C)NC(C)(C)C2)oc2c(Cl)cccc12
- Bead autofluor = 4114
O=C1c2ccccc2-c2ccccc2NC1O (configuration not stated)
- Bead autofluor = 3531
COc1ccc(-c2ccc(CN3C(CC(C)C)C(=O)N(Cc4cn(CC5CCCCC5)nn4)CCS3(=O)=O)cc2)cc1 (configuration not stated)
- Bead autofluor = 3674

(listing goes on)
SMILES	Bead autofluor
O=C(COC(=O)CSc1ccccc1)NC1CCS(=O)(=O)C1 (configuration not stated)	3073
COc1cccc(-c2cnc3cccnn23)c1	3877
CC(=O)NCCNc1nc2cc(-c3cnn(CCC(C)C)c3)sc2c(=O)n1C	3532
Clc1ccc2nc(C3CCCCC3)c(Cc3ccsc3)n2c1	6269
CCOC(=O)CCCCCC(=O)Nc1ccc2c(c1)C(=O)N([C@H](C)CO)C[C@H](C)[C@H](CN(C)C(=O)C1CCCCC1)OCCCC[C@@H](C)O2	3586
C/C(Nc1ccc(Cl)c(Cl)c1)=C1/CCOC1=O	3232
CCCS(=O)(=O)NC(=O)C1(C)CCN(C(=O)c2cc(C)on2)C1 (configuration not stated)	2871
Fc1ccc(NC(=S)SCc2ccc3c(c2)OCO3)cc1F	2820
Cc1noc(C)c1NC(=O)N(C)C[C@@H]1OCc2ccccc2-c2c(n(C)c3ccccc23)C(=O)N([C@H](C)CO)C[C@H]1C	3422
NC(c1ccccc1)c1csc(NC(=O)Nc2ccc(OC(F)(F)F)cc2)n1 (configuration not stated)	2872
O=C(c1ccccc1F)N1CCC2CC1c1cc(N3CCCCC3)ccc12 (configuration not stated)	5881
CCCNC(=O)C1(C)CCN(C(=O)c2ccccc2OC(F)(F)F)C1 (configuration not stated)	3699
O=C(NCc1cc2ccccc2[nH]1)C1CCC(=O)N(CC2CCCCC2)C1 (configuration not stated)	3937
Cc1onc(-c2ccccc2)c1C(=O)N1CCCC(C)(C(=O)NS(=O)(=O)C2CC2)C1 (configuration not stated)	2798
CC(=O)c1cccc(-c2ccnc3c2CC(C(=O)NCc2ccncc2)O3)c1 (configuration not stated)	2931
Cc1ccc(NC(=O)CN(C)C(=O)C2CSC3(C)CCC(=O)N23)cc1 (configuration not stated)	2966
Cc1ccc(CS(=O)Cc2ccc(C(=O)NCCCc3ccccc3)o2)cc1 (configuration not stated)	3083
Cc1ccc(Cc2c(-c3ccc(C#N)cc3)nc3ccc(Br)cn23)cc1	4653
CC(C)n1c(=O)c2ccccc2n1CC(=O)N1CCOCC1	5548
CCCCn1nnnc1C(c1cc2ccccc2o1)N1CCCC1 (configuration not stated)	6189

Of the compounds above, these contain an NH in an aromatic ring.
SMILES	Bead autofluor
CCOc1ccc(Cl)cc1-c1cc(C(=O)NC2CCCCC2)[nH]n1	3436
CCN(CC(=O)Nc1c(F)cccc1F)C(=O)CCCSc1nc2ccccc2[nH]1	3686
C[C@@H]1Cc2[nH][nH]c(=O)c2[C@H](C)O1	6307
Cc1cc(C)cc(C(O)c2ncc(-c3ccc(F)cc3)[nH]2)c1 (configuration not stated)	3687
O=C(NCc1cc2ccccc2[nH]1)C1CCC(=O)N(CC2CCCCC2)C1 (configuration not stated)	3937

(more compounds)
SMILES	Bead autofluor
COc1ccc(C(c2nnnn2Cc2ccccc2)N2CCC(n3c(=O)[nH]c4ccccc43)CC2)cc1 (configuration not stated)	5896
Cc1noc(C)c1-c1ccc(C(=O)NCc2ccccc2)c2occc12	3786
CC1(C(=O)Nc2ccc(Cl)c(Cl)c2)CCN1C(=O)CC(c1ccccc1)c1ccccc1 (configuration not stated)	4259
O=c1[nH]c(=S)[nH]c2c1[C@H](CCc1cccc(Cl)c1)O[C@H](C1CCCC1)C2	6027
O=C(NC1CC1)c1ccc2sc([C@H]3C[C@H](O)[C@@H](CO)O3)nc2c1	3151
O=C(CC1CC2CCC1C2)N1CCN(S(=O)(=O)c2ccc(C(F)(F)F)cc2)CC1 (configuration not stated)	3809
COc1ccc(CCNC(=O)Nc2nc(C(N)COCc3ccccc3)cs2)cc1OC (configuration not stated)	4049
